Bioassay records from PubChem.
PrP 5UTR inh: inhibition of PrP 5' UTR reporter expression; cell-based PrP 5' UTR mRNA reporter, plate reader; inhibition, % (test concentration not listed); 340,000 tested, 0.35% active; AID 488862;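 active means every replicate at 50% or more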;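 further: 0 = median of the neutral control wells; tested in H4 reporter cells; numbers are from one replicate; inactives centre near -14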
Sa ugtP lethal: growth inhibition of S. aureus ugtP deletion strain | growth inhibition, % (test concentration not listed) | 330,000 tested, 0.54% active | S. aureus RN4220 ugtP deletion, OD600 growth, 16 h; some inactives read as strong as hits | AID 1259309;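 active means z-score under -3 and OD600 up to 0.15 on both plates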;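 further: plate controls were untreated wells for no effect and antibiotic for full effect; wells of about 80 µL received 100 nL stock; the first replicate is given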
Mtb hypoxia inh: inhibitors of hypoxia-regulated fluorescent reporter in Mycobacterium tuberculosis; 300,000 tested, 0.1% active; fluorescence inhibition, % (concentration not given with the values); M. tuberculosis hypoxia-regulated fluorescent reporter, fluorescence;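 active means 35 to 45% if threefold the growth effect, above 45% if 1.5-fold the growth effect; inactive means the rest, general growth blockers included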;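 further: wells of about 50 µL received 100 nL stock; 0% = vehicle wells and 100% = reference inhibitor wells; whole bacteria with a GFP reporter of the hypoxia response; strong numbers were not always called active; many hits fall short of the cut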
RN4220 kill: kills Staphylococcus aureus RN4220 | S. aureus RN4220 growth, OD600, 16 h | inhibition, % (concentration not given with the values) | 330,000 tested, 0.33% active | AID 1259311;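 active means z-score of -3 or lower and OD600 up to 0.18 on both plates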;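 further: plate controls were untreated cells for no effect and reference antibiotic for full effect; stock transfer was 100 nL into about 80 µL; one replicate is shown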
BJeLR viability: kills HRASV12-expressing BJeLR cells; BJeLR (HRASV12) viability, CellTiter-Glo ATP luminescence, 48 h; reference of the scale not given here; 300,000 tested, 0.17% active; inhibition, % (concentration not given with the values); AID 1554;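 active means replicate mean above 50%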;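 further: 50 nL library stock added to about 25 µL; numbers are from one replicate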
Bead autofluor: flagged as autofluorescent in microsphere protease counterscreen; fluorescence intensity (test concentration not listed); AID 624483; 360,000 tested, 3.1% active; compound autofluorescence counterscreen, microsphere flow cytometry; hits give high values;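 active means at least 3 SD above the mean of all compounds, about 16000 in these data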;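 further: 100 nL of 1 mM stock went into each well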
Mtb hypoxia inh growth: also measured in Mtb hypoxia inh; calls as there; growth inhibition, %; measured here: M. tuberculosis growth (absorbance);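 0% = vehicle and 100% = reference antibiotic; read after six days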
* hit, by the source's call; nt = no result given.

nr | canonical_smiles | BJeLR viability | Mtb hypoxia inh | Sa ugtP lethal | PrP 5UTR inh
1 | CC1=CC(C)(C)NC(=S)N1c1cccc2cc(S(=O)(=O)O)ccc12 | 4 | 6 | 12 | 2
2 | CC1CCN(c2ccc(C(=O)O)cc2NS(=O)(=O)c2ccc(Br)cc2)CC1 | 0 | 4 | -11 | -15
3 | CNC(=O)Nc1ccc2nc(C)oc2c1 | -5 | -2 | 7 | -42
4 | Cc1ccc(C(=O)CC(C(=O)O)c2cn(CCC#N)c3ccccc23)cc1 (stereo unspecified) | nt | nt | 6 | -21
5 | Cc1cc(=O)oc2c3c(cc(OCC(=O)NCC(=O)N[C@H](C(=O)O)C(C)C)c12)OC(C)(C)CC3 | -3 | -6 | 14 | -13
6 | Cc1[nH]n(-c2ccccc2)c(=O)c1/C=C1/C=c2ccccc2=N1 | 6 | 10 | 4 | -19
7 | O=C(O)CC1(CC(=O)N2CCOCC2)CCCC1 | -1 | 15 | 14 | -13
8 | COc1ccc(OCCC(=O)OCC(=O)Nc2cccc(S(=O)(=O)N3CCOCC3)c2)cc1 | -3 | 2 | 7 | -12
9 | CCOC(=O)N1CCN(C(=O)c2cn(CCOC)c(=O)c3c2c2ccccc2n3C)CC1 | -1 | 5 | 0 | -1
10 | CCc1nc(Nc2cccc(OC)c2)c2oc3ccccc3c2n1 | 3 | -6 | 13 | 5
11 | Cc1cc(C)c(C#N)c(SCS(=O)Cc2ccccc2)n1 (stereo unspecified) | 5 | 21 | 9 | -22
12 | CCc1ccc(S(=O)(=O)N2CC(=O)Nc3ccccc32)cc1 | 2 | 12 | 10 | -5
13 | COc1ccc(NC(=O)c2sc3nc(N4CCCC4)c4c(c3c2N)CC(C)(C)OC4)cc1 | -3 | 1 | -11 | -4
14 | Cc1cc(C)nc(N(C#N)Cc2ccccc2C)n1 | -6 | 7 | -2 | -8
15 | Cc1ccc(-c2ccc(C=NNC(=O)CN3CCCC3)o2)cc1Cl | nt | 7 | -15 | nt

nr | RN4220 kill | Bead autofluor | Mtb hypoxia inh growth
1 | 5.8 | 2799 | -15
2 | 30 | 7277 | 3
3 | 5.4 | 4406 | -3
4 | -0.1 | 5323 | nt
5 | 5.9 | 3745 | -1
6 | 0.7 | 3548 | 2
7 | -1.1 | 4035 | 3
8 | 4.2 | 4280 | -1
9 | 0.6 | 9638 | 9
10 | 14 | 3545 | 5
11 | 8.0 | 9817 | 7
12 | 7.9 | 7297 | -4
13 | 10 | 5075 | -7
14 | 2.8 | 2415 | -1
15 | 5.6 | nt | 4

Other records
nr | canonical_smiles | BJeLR viability | Mtb hypoxia inh | Sa ugtP lethal | PrP 5UTR inh
16 | O=C(N/N=C\c1ccncc1)c1ccc(Cl)s1 | 5 | nt | nt | 4
17 | Cc1ccc(-c2nn(-c3ccccc3)cc2C=Nn2c(-c3ccncc3)n[nH]c2=S)cc1 | nt | -7 | 5 | nt
18 | CN(Cc1ccc(F)cc1)C(=O)c1cccc(NS(=O)(=O)c2ccccc2)c1 | -1 | 7 | -1 | -1
19 | O=C(N/N=C1/CN2CCC1CC2)c1cc2ccccc2cc1O | -5 | nt | nt | -7
20 | CCOc1ccc(C(=O)OCC(=O)N2CCOCC2)cc1OCC | 2 | -1 | 1 | -14
21 | COc1ccc([N+](=O)[O-])cc1NC(=O)c1ccc(CN(c2ccccc2)S(C)(=O)=O)cc1 | -2 | -3 | 0 | -32
22 | O=C(NC1CCCCCC1)C1CCN(S(=O)(=O)c2ccc(F)cc2)CC1 | 0 | 13 | 10 | -15
23 | Cc1ccc(CCN2CC(C(=O)N3CCN(c4ccc(F)cc4)CC3)CC2=O)cc1 (stereo unspecified) | -9 | 13 | 3 | -9
24 | COc1ccc(OC)c(C2CC(=O)c3c([nH]c(C(=O)OC(C)C)c3C)C2)c1 (stereo unspecified) | 28 | nt | 9 | -29
25 | COc1ccc(OCCSCc2nnc(NC(=O)Nc3ccc(Cl)cc3)s2)cc1 | -2 | 14 | -8 | -30
26 | CCSc1oc(-c2ccccc2)nc1S(=O)(=O)c1ccccc1 | 2 | 19 | -5 | -30
27 | COc1cc(NC(=O)CSc2nnc(Cn3nnc4ccccc43)n2C)cc(OC)c1 | 1 | nt | 6 | -19
28 | CC1CCN(CC(=O)NCc2ccco2)CC1 | 1 | 20 | 3 | -27
29 | O=C(NCCc1csc(-c2cccnc2)n1)c1ccco1 | 8 | 11 | -5 | -29
30 | CN(C)C(=O)/C(C#N)=C\c1cc(Br)c(Sc2ccc(Cl)cc2)o1 | nt | 12 | -9 | -21

nr | RN4220 kill | Bead autofluor | Mtb hypoxia inh growth
16 | nt | 6220 | nt
17 | 24 | nt | -4
18 | 5.3 | 5540 | -4
19 | nt | 9908 | nt
20 | 1.2 | 5879 | -10
21 | -1.7 | 2037 | 4
22 | -0.7 | 12808 | 7
23 | 6.8 | 20552* | 3
24 | 1.4 | 6074 | nt
25 | 1.7 | 2107 | 8
26 | 16 | 10845 | 3
27 | 0.9 | 4578 | nt
28 | 3.9 | 4192 | 11
29 | -8.9 | 6425 | 12
30 | 0.0 | 2436 | 3

Continuation.
nr | canonical_smiles | BJeLR viability | Mtb hypoxia inh | Sa ugtP lethal | PrP 5UTR inh
31 | O=C(COc1ccc(F)cc1Br)NCC1(N2CCCCC2)CCCCC1 | nt | 13 | 14 | -22
32 | Fc1ccc(Cn2nnnc2C(c2ccc(Cl)cc2)N2CCSCC2)cc1 (stereo unspecified) | 3 | 17 | -10 | -13
33 | CCOc1cc2[nH]c(=O)n(Cc3cccc(OC)c3)c(=O)c2cc1OCC | -12 | 9 | 14 | -33
34 | CCCOC(=O)C1=C(C)NC2=C(C(=O)C(C(=O)OC)C(C)C2)C1c1ccc(N(CC)CC)cc1 (stereo unspecified) | -13 | 0 | 13 | -5
35 | Cc1c(/C(O)=C2\C(=O)C(=O)N(CCN(C)C)C2c2cccs2)cnn1-c1ccccc1 (stereo unspecified) | 1 | nt | 1 | -20
36 | Cc1ccc(C(N)=Nc2ccccc2)cc1 | 1 | 16 | 1 | -23
37 | O=C(CCn1nc(-c2ccccc2)ccc1=O)N1CCN(c2ccccc2)CC1 | 5 | 6 | 8 | -3
38 | COc1cc(OC)cc(-c2c(C#Cc3ccsc3)c3cc(-c4cccc5[nH]ccc45)ccc3n2C)c1 | nt | 6 | -3 | -12
39 | CCn1cc(C2=NCC(C)O2)c2ccccc21 (stereo unspecified) | -4 | 7 | 1 | -39
40 | CCn1c(C2CC(=O)N(c3cc(C)cc(C)c3)C2)nc2ccccc21 (stereo unspecified) | 0 | 4 | -10 | -25
41 | CCOC(=O)c1nc2nc(C)cc(=O)n2[nH]1 | 3 | -14 | -8 | -16
42 | Cc1ccc(O)c(N=Cc2sc3ccccc3c2Cl)c1 | 6 | 14 | 2 | -26
43 | COc1cnc(NS(=O)(=O)c2ccc(N)cc2)nc1 | -23 | 9 | 4 | -6
44 | O=C(CN1C(=O)c2ccccc2C1=O)NCC(=O)OCC(=O)c1ccc(Cl)cc1 | 6 | 5 | 1 | -3
45 | CC(Oc1ccc2c(c1)oc(=O)c1ccccc12)C(=O)NC(Cc1c[nH]c2ccc(O)cc12)C(=O)O (stereo unspecified) | -6 | nt | 3 | -17

nr | RN4220 kill | Bead autofluor | Mtb hypoxia inh growth
31 | 9.6 | 4794 | 12
32 | 8.6 | 3639 | 6
33 | 8.1 | 10202 | 9
34 | 3.8 | 8869 | 2
35 | 3.5 | 4893 | nt
36 | -0.1 | 3099 | 8
37 | -2.3 | 2920 | -7
38 | 2.3 | 3975 | 7
39 | 3.9 | 10074 | 8
40 | -6.4 | 5815 | 13
41 | -4.8 | 9394 | -9
42 | 6.3 | 9779 | 5
43 | 4.0 | 4679 | 13
44 | 2.6 | 2551 | -17
45 | 2.7 | 4165 | nt

Other structures
nr | canonical_smiles | BJeLR viability | Mtb hypoxia inh | Sa ugtP lethal | PrP 5UTR inh
46 | CCOC(=O)C1=C(c2ccccc2)Nc2ncnn2C1c1ccc(C(=O)O)cc1 (stereo unspecified) | -3 | 6 | 14 | -9
47 | CC(C)CCN(C(=O)C1CCCC1)c1c(N)n(Cc2ccccc2)c(=O)[nH]c1=O | nt | 10 | 9 | -13
48 | O=C(O)c1ccc(NC(=O)c2ccc(COc3ccc(Cl)cc3)o2)cc1 | -5 | 7 | 11 | -36
49 | COc1ccc(Cc2nnc(NC(=O)C3CC(=O)N(c4ccccc4)C3)s2)cc1OC (stereo unspecified) | 8 | 9 | -2 | -9
50 | CC(C)[C@@H]1NC(=O)c2cc([N+](=O)[O-])cc(I)c2NCCC[C@@H](C(=O)NC(CC(=O)O)C(N)=O)NC(=O)[C@H](CO)NC1=O (stereo partly specified) | 1 | nt | nt | -15
51 | COc1ccc(CN2C(=O)CC(C(=O)NCCc3ccc(S(N)(=O)=O)cc3)SC2=Nc2ccccc2)cc1 (stereo unspecified) | 1 | 7 | 0 | -52
52 | COCC1CCN(Cc2cn(Cc3ccccc3)nc2-c2cc3ccccc3o2)CC1 | 12 | -3 | 4 | -25
53 | Cc1c(C(=O)NCc2ccc(F)cc2)c(-c2ccccc2)nn1-c1ccccc1 | -14 | 8 | 4 | -3
54 | Cc1nn(CCOc2ccccc2Cl)c(C)c1[N+](=O)[O-] | -1 | 16 | -7 | -23
55 | COc1ccc(C)cc1NC(=O)COC(=O)c1ccccc1SCC(=O)N1CCCC1 | 9 | 3 | -5 | 2
56 | NC(=S)N=Nc1c(O)n(CCCl)c2ccc(Br)cc12 | -4 | 9 | 7 | -20
57 | Cc1ccc(NC(=O)CCNC(=O)c2ccco2)cc1F | 9 | 0 | 3 | -28
58 | CC(CCc1ccccc1)NC(=O)COC(=O)c1ccc(NC(=O)CC#N)cc1 (stereo unspecified) | 44 | -5 | 1 | -12
59 | CCCn1c(SCC(=O)Nc2sc(C)c(C)c2C(=O)OCC)nc2c1c(=O)n(C)c(=O)n2C | 0 | 12 | 2 | -49
60 | COc1cccc(NC(=S)C(C#N)=C2N(C)c3ccccc3N2C)c1 | -9 | -8 | 4 | -9

nr | RN4220 kill | Bead autofluor | Mtb hypoxia inh growth
46 | 2.4 | 4207 | 5
47 | 2.5 | 3240 | 5
48 | 11 | 3632 | 8
49 | -0.1 | 4256 | 1
50 | nt | 4024 | nt
51 | 5.4 | 4097 | 5
52 | 15 | 4513 | 16
53 | -2.3 | 4921 | 14
54 | 1.9 | 3398 | 8
55 | -1.0 | 6196 | 11
56 | 2.6 | 5350 | -11
57 | 6.2 | 4276 | 8
58 | -1.1 | 4036 | 2
59 | 2.7 | 9031 | 4
60 | 8.6 | 3626 | -4

The final four compounds of the section before lead into the next.
nr | canonical_smiles | BJeLR viability | Mtb hypoxia inh | Sa ugtP lethal | PrP 5UTR inh
57 | Cc1ccc(NC(=O)CCNC(=O)c2ccco2)cc1F | 9 | 0 | 3 | -28
58 | CC(CCc1ccccc1)NC(=O)COC(=O)c1ccc(NC(=O)CC#N)cc1 (stereo unspecified) | 44 | -5 | 1 | -12
59 | CCCn1c(SCC(=O)Nc2sc(C)c(C)c2C(=O)OCC)nc2c1c(=O)n(C)c(=O)n2C | 0 | 12 | 2 | -49
60 | COc1cccc(NC(=S)C(C#N)=C2N(C)c3ccccc3N2C)c1 | -9 | -8 | 4 | -9
61 | Cc1cc(C)c(C#N)c(SCC(=O)c2ccc(Cl)cc2Cl)n1 | 2 | -15 | -33 | -9
62 | O=C(Nc1ccc(Cl)cc1)/C(=C/c1cccc(O)c1)c1nc2ccccc2s1 | 38 | 2 | 89* | -52
63 | COCCNCCCCOc1ccc(Br)cc1C | 12 | 24 | -12 | -8
64 | N#CC1=C(N)Oc2cc(O)ccc2C1c1cccs1 (stereo unspecified) | 2 | nt | 11 | 2
65 | Cc1[nH]c2ccccc2c1/C=N/NC(=O)c1cccs1 | 8 | nt | nt | -28
66 | CCOC(=O)c1c(C)[nH]c(C)c1S(=O)(=O)NCCc1ccc(SC)cc1 | 8 | -6 | 9 | -16

nr | RN4220 kill | Bead autofluor | Mtb hypoxia inh growth
57 | 6.2 | 4276 | 8
58 | -1.1 | 4036 | 2
59 | 2.7 | 9031 | 4
60 | 8.6 | 3626 | -4
61 | -3.5 | 8216 | -8
62 | 69 | 2388 | 6
63 | 1.3 | 7476 | 5
64 | 6.3 | 2723 | nt
65 | nt | 15574 | nt
66 | 3.8 | 6166 | -5

Random draw from the library, and some 4.1% of all compounds hit somewhere here.
